Mtb MbtI inh: MbtI salicylate synthase inhibition; P9WFX0; purified MbtI enzyme, fluorescence intensity read-out; inhibition, %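 (about 17 µg/mL by stock and volumes)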; 100,000 compounds, 0.89% hits; AID 493033;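 active = above 50% in both replicates, above 80% if mildly self-fluorescent; inactive = the rest, strongly fluorescent compounds included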;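 also: 0% = mean of negative and 100% = mean of positive controls; one replicate is shown; some compounds called inactive have numbers as strong as hits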
Target sequence (P9WFX0 whole entry, looked up): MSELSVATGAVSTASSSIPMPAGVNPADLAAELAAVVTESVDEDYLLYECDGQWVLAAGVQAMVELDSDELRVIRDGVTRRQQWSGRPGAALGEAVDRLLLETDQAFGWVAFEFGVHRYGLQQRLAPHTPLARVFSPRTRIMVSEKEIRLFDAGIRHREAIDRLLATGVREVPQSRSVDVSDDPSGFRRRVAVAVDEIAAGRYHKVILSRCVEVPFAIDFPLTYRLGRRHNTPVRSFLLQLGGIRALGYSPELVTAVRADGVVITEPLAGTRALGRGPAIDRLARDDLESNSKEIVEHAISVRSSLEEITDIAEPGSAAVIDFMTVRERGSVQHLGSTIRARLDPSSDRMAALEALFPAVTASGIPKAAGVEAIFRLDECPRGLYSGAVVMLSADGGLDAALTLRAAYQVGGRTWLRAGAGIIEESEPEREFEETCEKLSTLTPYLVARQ
Mtb MenB inh: inhibitors of Mycobacterium tuberculosis MenB enzyme; P9WNP5; MenB enzyme assay, absorbance read-out; some hits fall short of the stated cut; inhibition, %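 (about 12 µg/mL by stock and volumes)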; 100,000 compounds, 0.43% hits;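 active = mean of two replicates above 30%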;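 also: 0% = no compound and 100% = wells with inactive enzyme; the first replicate is given; strong numbers were not always called active; inactives centre near -10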
Target sequence (P9WNP5 whole entry, looked up): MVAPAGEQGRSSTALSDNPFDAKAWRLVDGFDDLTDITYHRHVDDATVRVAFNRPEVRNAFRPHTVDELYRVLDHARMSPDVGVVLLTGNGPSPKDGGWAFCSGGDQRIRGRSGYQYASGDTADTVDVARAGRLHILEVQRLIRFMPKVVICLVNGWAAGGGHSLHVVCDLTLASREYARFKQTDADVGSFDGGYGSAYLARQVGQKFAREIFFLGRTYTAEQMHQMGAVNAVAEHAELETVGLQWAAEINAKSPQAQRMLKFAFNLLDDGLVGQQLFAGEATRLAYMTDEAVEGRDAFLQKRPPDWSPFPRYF
PV pol inh: inhibitors of poliovirus RNA polymerase binding and polymerization. AID 588519. poliovirus polymerase elongation, fluorescence polarization; hits give low values. % elongation, % (compound at 16.7 µg/mL). P03300. 150,000 compounds, 0.66% hits; in the data active = % elongation below about 90%; also: some results filed as inactive read as strong as hits
PV pol inh intensity: further read-out of PV pol inh, marked with its call; % elongation; measured here: total intensity read-out; formula for this scale not given here;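 total fluorescence in place of polarization; lower means less elongation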
* hit, by the source's call; x = no result given; & = joins results of further samples. Rows were taken by chance. About 1.7% of those tested had a hit in this group.

SMILES	Mtb MbtI inh	Mtb MenB inh	PV pol inh	PV pol inh intensity
COc1ccc2c3c1CCCN3CCC2	15	x	99	105
CCSc1sc(CC)cc1C(N)=O	8	-26	100	101
CC1CC(=O)Nc2ccccc2N1C(=O)Cn1nnc(-c2cccs2)n1 (configuration not stated)	7	-13	113	127
O=C(O)CCNCc1c(Cl)cccc1Cl	-4	-11	104	103
Cc1ccc(S(=O)(=O)N2CCN(C(=O)N(C)c3ccccc3)CC2)cc1	-7	-13	104	103
CCc1nc2ccccc2c(C(=O)OCc2ccc(C#N)cc2)c1C	-3	x	100	102
CCC(=O)O[C@H]1CC[C@H]2[C@@H]3CCC4=CC(=O)CC[C@]4(C)[C@H]3CC[C@]12C	-4	-2	100	98
CSCCC1NC(=O)N(Cc2c(Cl)cccc2Cl)C1=O (configuration not stated)	-4	-15	103	125
c1ccc(CCCN2CCN(C3CCCC3)CC2)cc1	-7	-19	105	101
Cc1ccc(C(=O)O)cc1-n1cccc1	x	-3	102	106
N#CCC(=O)Nc1nc2ccccc2nc1Cl	-121	x	101	107
CCc1nnc(N2C(=O)c3ccccc3C2(O)c2ccccc2)s1 (configuration not stated)	23	-24	99	102
COC(=O)c1ccccc1NC(=O)c1ccc2nc(N3CCCCC3)sc2c1	2	7	104	98
CCOc1ncccc1C(=O)OCc1ccc(O)c2ncccc12	1	-70	103	106
COc1ccc2nc(C)cc(SCC(=O)O)c2c1	-56	-3	101	99
O=C(c1cncn1-c1ccccc1)N1CCCC(c2nc3ccccc3s2)C1 (configuration not stated)	-9	-18	102	110
COc1ccc(C(=O)Nc2ccc(Oc3ccccc3)cc2)cc1I	x	-8	103	109
O=C(Cc1ccccc1)Nc1ccc(-c2nc3cccnc3s2)cc1	103	-8	100	99
Cc1cnn(C(=S)NCCc2ccccc2)c1	-10	-12	100	101
COC(=O)CCCCC1SCC2NC(=O)NC21 (configuration not stated)	-8	-16	103	99
CC(C)(C)C(=O)COC(=O)Cc1ccc(-c2ccccc2)cc1	-8	x	103	104
COc1cccc(N/C=C(\C#N)C(=O)N2CCOCC2)c1	24	-21	100	103
Cc1c(C(=O)O)sc(=S)n1-c1ccccc1	17	0	100	102
CC(C)(C)c1cnnn1-c1ccc(NC(=O)c2ccc3c(c2)OCO3)cc1	-4	-20	104	102
O=C1CC(c2ccccc2)Cc2[nH]ncc21 (configuration not stated)	-8	-9	101	105
CSc1nc(C)cc(C)c1C(N)=O	1	-31	99	100
N#Cc1ccccc1COC(=O)c1ccc2c(=O)n3c(nc2c1)CCCCC3	-14	-29	106	104
CCOc1cc2c(cc1OCC)C1C(C(=O)NCCOC)c3ccccc3C(=O)N1CC2 (configuration not stated)	-3	-15	104	104
OC(CN1CCOCC1)c1ccccc1 (configuration not stated)	-9	5	103	110
Cc1cc2nc(N(C)Cc3cccnc3)c3ccccc3n2n1	-22	-12	101	102
O=c1[nH]cc(N=Cc2cccnc2)c(=O)[nH]1	3&-9	6&3	104&101	104&103
Cc1oc(-c2ccc(Cl)cc2)nc1CS(=O)CC(=O)N1CCC2(CC1)OCCO2 (configuration not stated)	25	-1	104	103
CNc1snc(C)c1C#N	10	-17	100	105
O=C(O)CCNC(=O)Nc1cccc2ccccc12	109	-6	99	102
CC(C)(C)c1ccc(OCCCC(=O)OCc2ccco2)cc1	-1	-22	101	105
COC(=O)CCS(=O)(=O)c1ccc(Cl)cc1	-14	-75	102	101
CCCCCCC[N+](CC)(CC)CCCCc1ccc(Cl)cc1	-12	-11	104	97
CC(C)C1NC(=O)NC1=O (configuration not stated)	-8	-4	106	102
CC(C)C(C(=O)N1CCN(c2ccc(C(F)(F)F)cn2)CC1)c1ccc(Cl)cc1 (configuration not stated)	-16	-26	104	102
COC(=O)/C(C#N)=C/c1cc(C(=O)OC)n(-c2ccc(Cl)cc2)c1	-55	-22	103	98
COC(=O)c1c[nH]n2c(=O)cc(C)nc12	91	6	102	107
Cc1nc2ccccn2c1-c1ccnc(=S)[nH]1	32	-67	105	104
O=C1/C(=C\c2ccco2)N=C(SCc2nnc(-c3ccccc3)o2)N1c1ccc(OC(F)F)cc1	6	-11	118	135
Cc1ccc(C)c(N2CCN(C(=O)CCCn3c(=O)c4cccn4c4cccnc43)CC2)c1	-2	-21	102	99
O=C(Nc1ccccc1)NC1(C(=O)NCc2ccc3c(c2)OCO3)CCCCC1	-11	-38	103	99
CCN(CC(=O)NC1CCS(=O)(=O)C1)C(=O)c1ccccc1Sc1ccccc1C#N (configuration not stated)	11	-20	109	110
Cc1ccc(S(=O)(=O)NCc2ccc(/C=C(/C#N)C(=O)NC3CCCCC3)o2)cc1	-9	-6	103	102
CC(Sc1nnc(-c2ccccc2Br)o1)C(=O)Nc1cccc(Cl)c1 (configuration not stated)	-4	-102	103	105

A run of entries from the list above:
SMILES	Mtb MbtI inh	Mtb MenB inh	PV pol inh	PV pol inh intensity
Cc1ccc(S(=O)(=O)NCc2ccc(/C=C(/C#N)C(=O)NC3CCCCC3)o2)cc1	-9	-6	103	102
CC(Sc1nnc(-c2ccccc2Br)o1)C(=O)Nc1cccc(Cl)c1 (configuration not stated)	-4	-102	103	105

(continued)
SMILES	Mtb MbtI inh	Mtb MenB inh	PV pol inh	PV pol inh intensity
COc1ccc(-c2cc(C(F)(F)F)nc(SCC(=O)N(C)C3CCCCC3)n2)cc1	5	1	104	106
CCCCc1c(C)nc2c(OC)cccc2c1SCCC(=O)O	x	-2	99	102
CC(O)Cc1n[nH]c(=S)n1-c1ccccc1 (configuration not stated)	10	0	101	105
COC(=O)c1ccc2c(=O)[nH]c(COC(=O)Cc3n[nH]c(=O)c4ccccc34)nc2c1	-27	10	101	105
CC(C)C(=O)/C=C1/Sc2ccccc2N1C	31	-9	101	102
CNc1nc2c(-c3ccc(Cl)cc3)nnn2c2ccccc12	34	-21	103	106
COc1ccc(Nc2c(-c3ccc(N4CCOCC4)cc3)nc3cnccn23)cc1	2	-35	100	100
Clc1ccc(Oc2ccc(N=Cc3ccc(I)o3)cc2)cc1	x	-34	104	103
Cc1nc2cc(C(=O)O)ccc2n1C1CCCCC1	-3	24	100	101
CCOC(=O)c1c(C)[nH]c(/C(C)=N\O)c1C	5	8	100	104
CC1(C)OC(=O)NC1=O	-7&-10	-8&6	100&99	99&101
O=C(c1ccc(S(=O)(=O)N2CCCCC2)cc1)N1CCN(Cc2nc3ccccc3s2)CC1	-10	-18	107	113
O=c1[nH]cnc2c1ncn2COCCO	4	0	101	102
Cc1ccc(Oc2ccccc2)c(NC=O)c1	-10	-1	95	100
Cc1cc(C)cc(NC(=O)c2cc(-c3ccco3)nc3ccccc23)c1	22	-27	103	106
Cc1ccc(C(=O)C2C(=O)c3ccccc3C2=O)cc1	10	1	96	99
CC(NCc1ccc(F)cc1)C(=O)NC1CCCCC1 (configuration not stated)	-3	-36	104	103
Cc1sc2ncnc(OCC(=O)N(C)Cc3ccco3)c2c1C	16	-37	103	96
O=C(c1cnn(C(=O)c2ccccc2)c1)c1ccccc1O	-1	-26	94	115
Cc1nnc2n1N=C(c1ccc(OC(F)F)cc1)C(C)S2 (configuration not stated)	26	0	103	102
CCSc1nnc(-c2ccc(OC)cc2)n1C1CCCCC1C (configuration not stated)	37	-4	95	95
Cc1nnc(Sc2cc(C(=O)NCc3ccccn3)c3ccccc3n2)s1	-4	-18	102	105
CN1C(=O)/C(=C\c2cccs2)c2ccccc21	4	x	103	104
O=C(OCc1nc2ccccc2s1)C1CCCCC1	-5	7	101	109
O=C(NCc1ccco1)C(C(=O)c1ccccc1)n1ccccc1=O (configuration not stated)	17	5	100	101
O=c1oc(-c2cccc(C(F)(F)F)c2)nn1-c1ccc(C(F)(F)F)cn1	-12	4	103	111
C=CCn1c(CNC(=O)c2cccs2)nnc1SCC(=O)Nc1nc2ccccc2s1	-13	-30	100	104
CCOC(=O)c1cccc(NC(=O)CCn2ccc(C)n2)c1	-14	-24	102	103
Cc1ccc(NC(=O)COC(=O)CSc2n[nH]c(-c3ccccc3)n2)cc1	x	-4	107	109
O=C(Nc1ccc2c(c1)OCCO2)C1CCCN(S(=O)(=O)Cc2ccccc2)C1 (configuration not stated)	0	56*	101	100
COC(=O)c1ccc2oc(=O)c(S(=O)(=O)c3ccccc3)cc2c1	5	-17	103	103
CCn1nnc2cc(C(=O)NCc3ccccc3CN3CCCC3)ccc21	-8	-17	101	105
CCN(CC)C(N)=S	1	-19	106	110
CCNc1nc(Cl)nc(NC2CCCCC2)n1	-12	-5	103	106
CC(=O)Nc1ccc2c(c1)sc(=NC(=O)c1cccs1)n2C	9	3	99	99
Cc1nnc(SC(C)C(=O)NCc2ccccc2)[nH]c1=O (configuration not stated)	4	23	100	101

Part of the list above, limited to Mtb MenB inh.
Structure	Mtb MenB inh
CCC(=O)O[C@H]1CC[C@H]2[C@@H]3CCC4=CC(=O)CC[C@]4(C)[C@H]3CC[C@]12C	-2
CC(C)C(C(=O)N1CCN(c2ccc(C(F)(F)F)cn2)CC1)c1ccc(Cl)cc1 (configuration not stated)	-26
CCOc1ncccc1C(=O)OCc1ccc(O)c2ncccc12	-70
COC(=O)c1c[nH]n2c(=O)cc(C)nc12	6

Compound profiles, as listed above. Screens in order: Mtb MbtI inh, Mtb MenB inh, PV pol inh, PV pol inh intensity
Profile of Cc1cnn(C(=S)NCCc2ccccc2)c1 = -10, -12, 100, 101
Profile of CCN(CC(=O)NC1CCS(=O)(=O)C1)C(=O)c1ccccc1Sc1ccccc1C#N (configuration not stated) = 11, -20, 109, 110
Profile of CC(NCc1ccc(F)cc1)C(=O)NC1CCCCC1 (configuration not stated) = -3, -36, 104, 103
Profile of Cc1ccc(C)c(N2CCN(C(=O)CCCn3c(=O)c4cccn4c4cccnc43)CC2)c1 = -2, -21, 102, 99
Profile of Cc1ccc(NC(=O)COC(=O)CSc2n[nH]c(-c3ccccc3)n2)cc1 = x, -4, 107, 109

Next part
SMILES	Mtb MbtI inh	Mtb MenB inh	PV pol inh	PV pol inh intensity
CCOc1ccc(CNC(=O)CCn2nc(C)cc2C)cc1OC	-13	5	101	103
CN(C(=O)Nc1ccccc1)C1CCCc2ccccc21 (configuration not stated)	-5	-44	104	110
O=C(NC1CC1)c1ccc2c(c1)NC(=O)c1ccccc1S2	-1	-7	104	104
C=CCNC(=O)C1C2C=CC(O2)C1C(=O)O (configuration not stated)	5	-22	102	102
O=C(COC(=O)Cc1ccc(Cl)cc1)NC1CCCCCC1	-6	x	103	102
CC(OC(=O)C1CC2CCCC(C1)C2=O)c1nnc(-c2ccccc2)o1 (configuration not stated)	-5	-12	105	100
CC(=O)Nc1ccc(Nc2nc(-c3ccccc3)c3cc(Br)ccc3n2)cc1	x	-12	105	104
CC(Sc1nnc(-c2c[nH]c3ccccc23)n1C)c1ccccc1 (configuration not stated)	-2	-29	102	106
Nc1nc(N)nc(SCC(=O)N2N=C(c3ccc4ccccc4c3)CC2c2ccccc2)n1 (configuration not stated)	78	1	109	116
COc1ccc(-c2nc(N)n(C(=O)c3ccco3)n2)cc1	9	-49	102	100
CCNS(=O)(=O)c1ccc(Cl)cc1I	-9	-7	103	106
O=C(CCS(=O)(=O)c1ccc(Cl)cc1)NC1CCCC1	-27	17	99	90
CCn1c(O)c(N=NC(=O)Nc2ccc(Cl)c(Cl)c2)c2ccccc21	-10	-7	95	103
N#Cc1ccc(N2Cc3ccccc3C2=NC(=O)c2cccs2)cc1	-2	x	101	106
Cc1ccc(-c2nnc(Sc3nc4ccccc4o3)c3ccccc23)cc1	-10	-26	104	108
CCOc1ccc(S(=O)(=O)N(CC(=O)N2CCCCC2)c2ccccc2)cc1	3	21	102	104
Cc1ccnc2nc(C(=O)NCCN3C(=O)S/C(=C\c4ccc5c(c4)OCO5)C3=O)nn12	4	-24	102	121
C=CC[n+]1cc(-c2ccccc2)n2c1CCCCC2	-14	x	103	108
CCn1c(=S)[nH]c2ccccc2c1=O	4	-7&-18	104&110	97&120
O=C(NCC1CCN(Cc2ccccc2F)CC1)Nc1ccccc1F	0	-14	102	103
COC(=O)c1[nH]nc2c1C(=O)N(C1CCCCC1)C2=O	-4	-14	103	102
Cc1cc(Br)c2c(c1)C(O)(C1C(=O)Nc3ccccc31)C(=O)N2C (configuration not stated)	7	-14	100	99
COc1ccc(OC)c(NC(=O)CSc2nc3nc(C)c(Cc4ccccc4)c(C)n3n2)c1	1	-20	102	104
Cc1ccc(-n2c(C3CC3)n[nH]c2=S)c(C)c1	18	-21	103	99

Single entries from above.
Result for C=CC[n+]1cc(-c2ccccc2)n2c1CCCCC2 under Mtb MbtI inh: -14
Result for O=C(NCC1CCN(Cc2ccccc2F)CC1)Nc1ccccc1F under PV pol inh intensity: 103
Result for Cc1ccc(-n2c(C3CC3)n[nH]c2=S)c(C)c1 under Mtb MenB inh: -21
Result for COC(=O)c1[nH]nc2c1C(=O)N(C1CCCCC1)C2=O under PV pol inh: 103

New compounds follow:
SMILES	Mtb MbtI inh	Mtb MenB inh	PV pol inh	PV pol inh intensity
Cc1nn(C)c2ncc(C(N)=O)c(Oc3cccnc3)c12	137	-7	107	107
CNC(=O)[C@H](Cc1c[nH]c2ccccc12)NC(=O)[C@@H](CC(=O)NO)CC(C)C	-7	4	100&100	102&99
O=C(O)c1ccc(/C=N/n2cnnc2)cc1	0	17	103	101
CC(=O)NS(=O)(=O)c1ccc(NC(=O)CN2C(=O)C3CC=CCC3C2=O)cc1 (configuration not stated)	6	-19	102	108
CS(=O)(=O)c1ccc(Cl)c(NC(=O)C2CC(=O)N(Cc3ccccc3)C2)c1 (configuration not stated)	6	12	105	104
COC(=O)c1ccccc1S(=O)(=O)NC(=O)Nc1nc(C)c2c(n1)CCSC2	13	2	100	101
CC(C)c1nc(=S)[nH][nH]1	87*	-8	84*	87*
CC(O)(CNC12CC3CC(CC(C3)C1)C2)c1ccc(Cl)cc1 (configuration not stated)	-16	x	100	105
